High-throughput results from PubChem BioAssay.
Calb biofilm kill: mixture kills Candida albicans biofilm cells | C. albicans biofilm persisters + clotrimazole, fluorescence viability; primary screen in compound mixtures of four per well | inhibition, % at 7.6 µM | 0.02% of 120,000 active;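 active means inhibition above 30.3% in the primary screen of four-compound pools, then above 30% when the compound was retested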;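 further: compounds exposed to preformed 24 h biofilms for 48 h; the number belongs to the whole pool; some results filed as inactive read as strong as hits; inactives centre near 12; 0% = biofilm with clotrimazole alone and 100% = kill control; retested singly at about 60 µM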
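Assay system: C. albicans biofilms / Medium: RPMI/MOPS medium, pH 7.0 / Schedule: biofilm formation 24 h, compound exposure 48 h, 37 °C / Measured by: Alamar Blue fluorescence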
Starred values were filed as active, the others as inactive. A portion of the library. The share of hits here may be higher or lower than overall.

mol | Calb biofilm kill
COc1ccc(N(CC(O)Cn2c(C)nc3ccccc32)S(=O)(=O)c2ccc(C)cc2)cc1 (stereo not given) | 19
CCCCC(=O)Nc1ccc(NC(=O)c2ccc([N+](=O)[O-])cc2Cl)cc1OC | 8
COc1ccc(Cn2nnnc2C(c2ccc3ncccc3c2)N2CCN(C3CCCCC3)CC2)cc1 (stereo not given) | 27
Cc1ccc(C(=O)c2ccc(N3CCN(C)CC3)c([N+](=O)[O-])c2)cc1 | 16
CCN(CC)c1ccc(NC(=O)C2CCC(CNc3c(N4CCCC4)c(=O)c3=O)CC2)c(C)c1 (stereo not given) | 14
CN(C)S(=O)(=O)c1ccc(C(=O)OCC(=O)NCc2ccccc2)cc1 | 8
O=C(NN1C(=O)c2ccccc2NC1c1ccco1)c1ccccc1 (stereo not given) | 14
CC(=O)NNc1nc(-c2ccc(NC(C)=O)cc2)cs1 | -8
NCCc1nnc(SCC(=O)c2ccc(Cl)cc2)o1 | 24
CC(C)NS(=O)(=O)c1ccc(OCC(=O)Nc2cccc(F)c2)cc1 | 16
Cc1[nH]c2ccccc2c1CN1CCC(Cc2ccccc2)CC1 | 19
CCOc1cc(/C=N/Nc2cc(C)nc(-n3nc(C)cc3C)n2)ccc1O | 8
COc1cccc(NC(=O)NCc2ccccc2F)c1 | 7
Cn1c(N)c(C(=O)COC(=O)c2ncc(Cl)c(Cl)c2Cl)c(=O)n(C)c1=O | 5
CN(C)S(=O)(=O)c1ccc(Cl)c(NC(=O)CN2C(=O)NC(C)(C3CC3)C2=O)c1 (stereo not given) | 9
O=C(CSCc1ccc(Br)cc1)NC1CC1 | 9
COc1cccc(CN2CCNC(=O)C2CC(=O)NCCc2cccc(C)n2)c1OC (stereo not given) | 19
COc1cc(OC)nc(-n2ncc(Br)c(Br)c2=O)n1 | 11
COc1ccc(C2=NN(CC(=O)NCc3ccco3)C(=O)CC2)cc1 | 20
CC(Sc1nnc(Nc2ccccc2)s1)C(=O)NC1CCCc2ccccc21 (stereo not given) | 6
Cc1ccc(-c2c(C(=O)NCc3ccc(F)cc3)oc(=O)c3ccccc23)cc1 | 17
COc1ccccc1NC(C)C(=O)N/N=C/c1ccccc1OCc1cccc(Br)c1 (stereo not given) | 6
Cc1nc2c(ccc3nc(NC(=O)Cc4cccc5ccccc45)sc32)s1 | 7
CCCN(CCC)S(=O)(=O)c1ccc(C(=O)NNc2nc(-c3ccccc3)c3cc(Br)ccc3n2)cc1 | 9
O=C1C(Cc2ccccc2)NC(=S)N1Cc1ccccc1 (stereo not given) | 21
N/C(=N\OC(=O)CCC1CCCC1)c1ccccc1 | 20
O=C(Nc1ccc(F)cc1)OCCN1CCN(Cc2ccccc2)CCC1=O | 13
COC(=O)c1ccc(Nc2cc(C)nc3ccc(C)cc23)cc1 | 24
CC(C)C(NC(=O)CSCc1ccc([N+](=O)[O-])cc1)C(C)C | 11
CCc1cccc(NC(=O)CCCCCC2NC(=O)NC2C)c1 (stereo not given) | 14
O=c1[nH]c(Cc2ccccn2)nc2scc(-c3ccccc3Cl)c12 | 14
CC(=O)c1c(C)[nH]c(C(=O)CSc2nnc(C)s2)c1C | 5
Cc1nc2ccc(N=NN(C)C)cc2[nH]1 | 14
COc1ccc(N(C)C(=O)c2oc(=O)c3ccccc3c2-c2ccccc2)c(OC)c1 | 21
Cc1cc(C)cc(N(CC(=O)NC(C)(C)C)C(=O)CNC(=O)c2cccs2)c1 | 24
Cc1ccc(/C=C/C(=O)Nc2ccc(Oc3ccccc3)cc2)o1 | 16
CC(C)(C)Nc1nc2cc([N+](=O)[O-])ccc2o1 | 12
COc1cc(C(=O)NCCc2ccc(S(=O)(=O)N3CCCC3)cc2)cc(OC)c1OC | 21
Cc1ccc(/C=C/S(=O)(=O)NCc2ccc(F)cc2)cc1 | 29
COc1ccc(C2(C#N)CCC(=O)N2c2ccccc2)cc1 (stereo not given) | 24
C=CCNC(=O)C(=O)c1c(-c2ccccc2)[nH]c2ccccc12 | 11
CC(C)C(=O)Nc1cc(C(F)(F)F)ccc1-n1ccnc1 | 11
COc1ccccc1/C=C/C1C(C(=O)OCC(C)C)=C(C)N=C2SCCC(=O)N21 (stereo not given) | 13
COC(=O)Cn1nnc2c(cnn2-c2ccccc2)c1=O | 14
COc1ccc(C(=O)NC2CCN(C(=O)Nc3ccccc3Cl)CC2)cc1 | -4
COc1ccc(CN2CCN(C(=O)C3CCN(S(=O)(=O)c4cccs4)CC3)CC2)c(OC)c1OC | 1
CC1Cc2ccccc2N1S(=O)(=O)c1cccc(C(=O)Nc2cccnc2)c1 (stereo not given) | 13
CCC(=O)c1cc2c(C)cc(=O)oc2c(C)c1OC | 3
CN(CC(=O)N1CCOCC1)C(=O)CSc1nc2ccccc2s1 | -1
O=C(O)c1cc(C2CC2)nc2ccccc12 | 14

Some of these compounds in order of formula weight, high to low.
mol | Calb biofilm kill
COc1ccc(N(C)C(=O)c2oc(=O)c3ccccc3c2-c2ccccc2)c(OC)c1 | 21
O=C(Nc1ccc(F)cc1)OCCN1CCN(Cc2ccccc2)CCC1=O | 13
COc1ccc(C2=NN(CC(=O)NCc3ccco3)C(=O)CC2)cc1 | 20
CC(C)C(NC(=O)CSCc1ccc([N+](=O)[O-])cc1)C(C)C | 11
NCCc1nnc(SCC(=O)c2ccc(Cl)cc2)o1 | 24
COc1cccc(NC(=O)NCc2ccccc2F)c1 | 7
CC(C)(C)Nc1nc2cc([N+](=O)[O-])ccc2o1 | 12

Continued:
mol | Calb biofilm kill
Cc1cccc(-c2noc(CCC(=O)Nc3ccc(C(N)=O)cc3)n2)c1 | 3
COc1cc(-c2nc(C)c(C(C)=O)n2O)ccc1OCC(=O)Nc1ccc(F)cc1 | 17
CCCCn1c(N)c(N(CC)C(=O)c2cc(OC)cc(OC)c2)c(=O)[nH]c1=O | -1
O=S(=O)(NCc1cc(-c2ccccc2)no1)c1ccccc1 | 31
CCCCC(=O)Nc1ccc(C(=O)Nc2ccc(S(=O)(=O)Nc3nccc(C)n3)cc2)cc1 | -12
C=C1CCN([C@@H](C)C(=O)OCc2cccc(C)c2)S(=O)(=O)c2ccccc21 | 8
CC(C)NC(=S)N/N=C/c1c[nH]c2ccccc12 | 12
CC(NC(=O)/C=C/c1cnc2ccccc2n1)C12CC3CC(CC(C3)C1)C2 (stereo not given) | 20
COc1ccc(CCNC(=O)Cn2c(=O)n(-c3ccc(F)cc3F)c(=O)c3sccc32)cc1OC | 10
CC(C)C(NC(=O)C1CCCCC1)C(=O)NCCc1ccccc1 (stereo not given) | 5
C=CCn1c(-c2cccc(OCC)c2)n[nH]c1=S | 7
O=C(NC1CCCC1)C1CCC(=O)N1C1CCCCC1 (stereo not given) | 10
O=C(NCc1csc(-c2cccs2)n1)C1CCC1 | 28
COc1ccc(CNS(=O)(=O)NCc2ccccc2)cc1 | 11
Cc1cc(NC(=O)/C=C/c2cccc(Cl)c2)n(-c2nc3ccccc3[nH]2)n1 | 10
CCN(CC)C(=O)c1sc2c(c1C)c(=O)n(-c1ccc(C)c(C)c1)c(=O)n2CC(=O)NCC1CCCO1 (stereo not given) | 7
O=S(=O)(c1ccc(NC(=S)N/N=C/c2ccc(O)c(O)c2)cc1)N1CCOCC1 | 13
CC(C)CC(c1nnnn1CCc1ccccc1)N1CCC(C(N)=O)CC1 (stereo not given) | 12
CCCOc1ccc(C(=O)Nc2ccc(S(=O)(=O)Nc3cc(C)nc(C)n3)cc2)cc1 | 13
Cc1ccc(S(=O)(=O)N(C)c2ccc3sc(C)nc3c2)cc1 | 20
Cc1ccc(CN2CCN(Cc3cnc(N4CCOCC4)s3)CC2CCO)o1 (stereo not given) | 8
COc1ccc(-c2csc3nc(-c4ccc(C)cc4)oc(=O)c23)cc1OC | 3
COc1ccccc1N1CCN(C(=O)COc2cc(C)cc(C)c2)CC1 | 9
CSCCC(NS(=O)(=O)c1ccc2c(c1)oc(=O)n2C)C(=O)NCc1ccccc1 (stereo not given) | 18
CC1=C(C(=O)OCC2CCCO2)C(c2coc3ccccc3c2=O)C2=C(CCCC2=O)N1 (stereo not given) | 15

More results follow:
compound	Calb biofilm kill
CCC(=O)Nc1cccc(NC(=S)NC(=O)c2ccc(C)cc2)c1	14
O=S(=O)(NC(=S)NC1CCCCC1)c1cccs1	11
CC1(C)CC(NC2C3CC4CC(C3)CC2C4)CC(C)(C)N1 (stereo not given)	18
C=CCn1c(-c2ccccc2OC)n[nH]c1=S	25
O=C(NCc1ccco1)/C(=C/C=C/c1ccccc1)NC(=O)c1ccco1	5
COc1ccc(N(C(=O)c2ccc(C)cc2)S(=O)(=O)c2cccs2)cc1	10
NNC(=O)CCc1ccc(S(=O)(=O)N2CCOCC2)cc1	14
N#CC1=C(N)Nc2ncnn2C1c1ccc(F)cc1 (stereo not given)	7
COc1cc2c(cc1OC)C(C)N(C(=O)c1cc3c(s1)-c1c(C)cccc1OC3)CC2 (stereo not given)	6
CC(=O)Oc1ccc(Cl)cc1/C=C/c1ccc2ccccc2n1	14
O=C1N(c2cccc3ccccc23)C(c2ccccc2)N2CCCN12 (stereo not given)	12
C(=C\c1ccccn1)/c1ccncc1	12
Cc1cc(C)nc(NN=C2CCCC2)n1	18
CCN(CC)S(=O)(=O)c1ccc(OCCNS(C)(=O)=O)cc1	11
COc1ccc(NC(=O)c2ccc(-c3ccc([N+](=O)[O-])cc3)o2)cc1OC	12
O=C(O/N=C(/c1ccccc1)c1ccncc1)c1ccc(F)cc1	19
COc1ccc2c(=O)cc(-c3cccnc3)oc2c1OC	24
CCn1c(SCC(=O)NC2CCCc3ccccc32)nnc1-c1ccncc1 (stereo not given)	7
COc1ccc(C)cc1N(C(=O)c1cccc(F)c1)c1nc2ccccc2s1	3
COCCCNC(=S)N1CCCN(c2nc3cc(C)ccc3cc2C#N)CC1	-2
Cc1ccc2c(CC(=O)OCC(=O)Nc3ccc(Cl)cn3)coc2c1	8
COc1cccc(-n2cn[nH]c2=S)c1	1
COC(=O)C1=CN(CC2CCCO2)C=C(C(=O)OC)C1c1cccc(O)c1 (stereo not given)	11
Cc1cc(C(=O)COC(=O)c2ccc(N)c([N+](=O)[O-])c2)c(C)n1-c1ccc2c(c1)OCO2	9
Cc1nc(NC(=O)COC(=O)CCC(=O)c2cccs2)c(Cl)cc1Cl	15
Cc1cc(C)nc(SCc2ccc(C(=O)N/N=C/c3cccnc3)cc2)n1	-10
c1ccc(CN(Cc2ccccc2)c2c3c(nc4ncnn24)CCC3)cc1	23
COCC(=O)OCC(=O)Nc1ccc(Cl)cc1[N+](=O)[O-]	-3
CCc1ccc(CN(C)C(=O)CCc2nnc(-c3ccc(-c4ccccc4)cc3)o2)nc1	6
CCOCCc1c(O)nc(SCCOc2ccc(C)c(C)c2)[nH]c1=O	19
CC(C)NC(=O)c1c(CSc2ccccc2)noc1C(=O)NCc1ccccc1	-4
Cc1ccc(-n2cc(CNCCc3cscn3)c(-c3ccc(F)cc3)n2)cc1	23
CC(C)(C)C1CCC(OC(=O)c2cncc(Br)c2)CC1 (stereo not given)	9
Cc1ccc(/C=C/C(=O)NC2CCS(=O)(=O)C2)cc1 (stereo not given)	16
Oc1c(Cl)cc(Cl)c2cccnc12	43*
CC(C)(C)C(=O)CSc1ncnc2c1cnn2-c1ccccc1	-2
CC(C)NC(=O)NC(=O)COC(=O)c1cc[n+]([O-])cc1	8
COc1ccc(C2CC(c3cccs3)=NN2c2ccc(C=O)cc2)cc1 (stereo not given)	16
COc1ccc(S(=O)(=O)N2CCCCC2)cc1NC(=O)c1cccnc1SC	20
COc1ccc(/C=N/NC(=O)Cn2nc([N+](=O)[O-])cc2C)c(OC)c1OC	8
CCNC(=O)[C@H]1O[C@@H](n2cnc3c(N)nc(NCCc4ccc(CCC(=O)O)cc4)nc32)[C@H](O)[C@@H]1O	18
CC(C)NCC(O)(c1ccc(Cl)cc1)c1ccc(Cl)cc1	43
CN(C)/C=C/C(=O)c1ccc(C(F)(F)F)cc1F	12
CN(c1cccc(Cl)c1)S(=O)(=O)c1cccc(C(=O)Nc2nc3ccccc3[nH]2)c1	21
CC(Sc1ccccc1)C(=O)NN=C1CCCCCCC1 (stereo not given)	18
CCN(Cc1ccncc1)C(=O)CCc1nnc(CCC2CCCCC2)o1	-2
Cc1ccc(C)n1-c1c(C(=O)NN)cnn1-c1ccccc1	8
CSc1ccc(C(=O)C2CCCN(C(=O)c3cccc(N4CCOCC4)c3)C2)cc1 (stereo not given)	19
CNC(=O)c1[nH]cnc1C(=O)N[C@@H](C)C(=O)OCc1ccccc1	11
CCCCOc1ccc(C(=O)N/C(=C/C=C/c2ccccc2)C(=O)O)cc1	10
CN1C[C@@H]2C(c3ccc(C(F)(F)F)cc3)C3(c4cccnc4)CC2(C3)[C@H]1c1ccccc1 (stereo not given in full)	13
Cc1ccc2cc(CN(CCCN(C)C)C(=S)NCc3ccccc3)c(=O)[nH]c2c1C	25
COc1ccccc1NC(=O)c1ccc(NC(=O)CN2C(=O)CN(C)C2=O)cc1	3
CCOC(=O)c1[nH]c2ccc(OC)cc2c1NC(=S)N1CCN(c2ccccn2)CC1	36
CCOC(=O)C(CC)/C(C)=N\NC(=O)c1cccc(C)c1 (stereo not given)	3

Part of the list above in another layout.
CNC(=O)c1[nH]cnc1C(=O)N[C@@H](C)C(=O)OCc1ccccc1
  Calb biofilm kill: 11
CCCCOc1ccc(C(=O)N/C(=C/C=C/c2ccccc2)C(=O)O)cc1
  Calb biofilm kill: 10
CN1C[C@@H]2C(c3ccc(C(F)(F)F)cc3)C3(c4cccnc4)CC2(C3)[C@H]1c1ccccc1 (stereo not given in full)
  Calb biofilm kill: 13
Cc1ccc2cc(CN(CCCN(C)C)C(=S)NCc3ccccc3)c(=O)[nH]c2c1C
  Calb biofilm kill: 25
